AmpC inh no det = inhibitors of E. coli AmpC beta-lactamase without detergent. P00811. AmpC nitrocefin hydrolysis, absorbance 480 nm, no detergent; potencies from a single point are estimates. Potency, µM (titrated, usually from 28.7 µM), without a hit: at the top dose activity change, negative = inhibition. hit rate 1.8% among 71,000. AID 585; active = falling curve, for most hits resting on a single point; inconclusive = weak or doubtful change; inactive = flat or rising curve; note: % of control where 0% means no effect; about half of the hits show no inhibition at the top dose; a quarter of the inactives give rising signals
Target sequence (P00811 whole entry, looked up): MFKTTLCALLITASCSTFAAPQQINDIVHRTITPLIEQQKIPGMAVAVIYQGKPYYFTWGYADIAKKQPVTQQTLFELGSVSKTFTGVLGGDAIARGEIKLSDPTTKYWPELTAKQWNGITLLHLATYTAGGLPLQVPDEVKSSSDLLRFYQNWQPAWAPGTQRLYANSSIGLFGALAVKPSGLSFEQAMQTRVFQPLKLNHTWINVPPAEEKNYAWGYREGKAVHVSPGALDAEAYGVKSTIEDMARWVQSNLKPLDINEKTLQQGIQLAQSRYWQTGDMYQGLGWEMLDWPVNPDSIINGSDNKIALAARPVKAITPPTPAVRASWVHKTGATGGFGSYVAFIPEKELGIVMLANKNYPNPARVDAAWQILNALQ
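AmpC in 20 mM phosphate buffer pH 7.0 was preincubated 15 min at room temperature with compounds. Nitrocefin (800 uM stock) was then added and hydrolysis followed at 480 nm every 20 s for 4 min.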
An asterisk follows results filed as active; ? = inconclusive; & = joins results of further samples; [ ] = remark or other dose. Potency is the fitted concentration of half-maximal effect. Some of the compounds tested; rates above refer to the full screens.

mol	AmpC inh no det
CCN(CC)C(=O)C1CCN(S(=O)(=O)c2ccc(C3CNC(=O)C3)cc2)CC1 (stereo unspecified)	6.6%
COc1ccc2cc(CN(CCCN3CCOCC3)Cc3nnnn3C3CCCC3)c(=O)[nH]c2c1	81.6%
COc1ccc(C(=O)Nc2nc3cc(OC)c(OC)cc3c(=O)[nH]2)cc1	10.2%
CCc1c(O)nc(SCC(=O)Nc2ccc3c(c2)CCC3)[nH]c1=O	-7.0%
O=C(c1cccnc1)N1CCCc2ccccc21	-2.4%
CCOc1ccc(N(CCC#N)S(=O)(=O)c2ccc(OC)cc2)cc1	19.0%
C/C(=C\C1CCCCC1)C(NC(=O)c1ccc(C(F)(F)F)cc1)c1ccc(-c2ccccc2)cc1 (stereo unspecified)	-11.3%
O=C(CN1CCN(c2ncc(C(F)(F)F)cc2Cl)CC1)NC(=O)NCc1ccccc1	33.2%

(list continues)
mol	AmpC inh no det
O=c1c(-c2cc(F)cc(F)c2)nc2cnc(N3CCOCC3)nc2n1C1CC1	11.2%
O=c1c2[nH]c3ccccc3c2ncn1Cc1ccncc1	6.6%
COCCNC(=O)CN(c1ccc(C)cc1)S(=O)(=O)c1ccccc1	22.2%
COC(=O)c1ccccc1NC(=O)NCc1cccnc1	22.1%
O=C(Nc1nnc(C2CCCC2)s1)C1CCC1	-11.1%
COP(=S)(OC)Oc1ccc([N+](=O)[O-])cc1	-4.4%
Oc1ccccc1Cn1c(-c2ccccc2O)nc2ccccc21	-9.4%
Nc1cc(C(=O)O)[nH]c(=O)n1	-12.0%[5.75 µM]

4 consecutive entries from above:
mol	AmpC inh no det
O=c1c(-c2cc(F)cc(F)c2)nc2cnc(N3CCOCC3)nc2n1C1CC1	11.2%
O=c1c2[nH]c3ccccc3c2ncn1Cc1ccncc1	6.6%
COCCNC(=O)CN(c1ccc(C)cc1)S(=O)(=O)c1ccccc1	22.2%
COC(=O)c1ccccc1NC(=O)NCc1cccnc1	22.1%

(cont.)
mol	AmpC inh no det
c1ccc(Oc2cccc(CN3CCOCC3)c2)cc1	46.7%
Cc1noc(C)c1-c1nccc(-n2ccnc2)n1	-1.8%
N#Cc1cccc(-n2nnnc2-c2ccc3c(c2)OCO3)c1	-10.6%
CCc1ccc(CN(C)CCc2ccccn2)cc1	4.2%
Brc1ccc2[nH]ncc2c1	-1.0%
O=c1c2ccccc2[nH]c(=S)n1C1CCCCC1	-7.2%
CCOC(=O)N1CCN(C(=O)CCc2ccc(S(=O)(=O)NCCc3ccccc3)cc2)CC1	83.3%
CCN1CCN(Cc2nnnn2C(C)(C)C)CC1	-8.6%

(listing goes on)
mol	AmpC inh no det
CC(=O)c1cn(CC(=O)NCC2CCCO2)c2ccccc12 (stereo unspecified)	0.1%
CC(C(=O)Nc1ccccc1-c1ccccc1)N1CCOCC1 (stereo unspecified)	49.6%
COc1ccc(CCNC(=O)C2(C)CCC(=O)N2CCC(C)C)cc1OC (stereo unspecified)	3.98µM*[single pt active]
COc1ccc(NC(=O)CSc2nccn2-c2ccccc2)cc1	-5.3%
COc1ccc2c(CC(=O)N3CCN(S(=O)(=O)c4cccs4)CC3)coc2c1	24.1%
Cn1ncc2c(Nc3cccc(Cl)c3)nc(Nc3cccc(Cl)c3)nc21	35.8%[5.75 µM]
CC(C)(C)c1n[nH]c(=S)n(N)c1=O	-16.0%
O=C(NCc1ccccc1)c1cccc(OCC(=O)N2CCN(C(=O)c3ccco3)CC2)c1	40.7%

(further entries)
mol	AmpC inh no det
CCCOc1ccc(N2C(=O)CC(NCc3ccncc3)C2=O)cc1 (stereo unspecified)	28.8%
COCCNc1nc(C)nc2c1nc(-c1ccccc1)n2CCN1CCCC1	-8.8%
CCOC(=O)Cn1c(=O)oc2cc(S(=O)(=O)NCc3cccs3)ccc21	-6.1%
Cn1c(=O)c(-c2ccc(Cl)cc2)nc2cnc(Oc3cccc(Cl)c3)nc21	7.3%
CC1CN(Cc2nc3c(c(=O)n(C)c(=O)n3C)n2CCCO)CC(C)O1 (stereo unspecified)	0.7%
O=C(Cc1cccs1)N(c1ccccc1)C1C=CS(=O)(=O)C1 (stereo unspecified)	-22.9%
COc1cc(OC)cc(C(=O)N2CCN(C(=O)COc3ccc4ccccc4c3)CC2)c1	114.2%
Cc1cccc(C)c1NC(=O)C1(NC(=O)c2cnccn2)CCCCC1	-5.1%

In a second layout: results already given
> CC1CN(Cc2nc3c(c(=O)n(C)c(=O)n3C)n2CCCO)CC(C)O1 (stereo unspecified)
  AmpC inh no det = 0.7%
> Cc1noc(C)c1-c1nccc(-n2ccnc2)n1
  AmpC inh no det = -1.8%
> CCN1CCN(Cc2nnnn2C(C)(C)C)CC1
  AmpC inh no det = -8.6%

Following part:
mol	AmpC inh no det
NS(=O)(=O)c1ccc(NC(=O)COC(=O)CCNC(=O)NC23CC4CC(CC(C4)C2)C3)cc1	-23.7%
CN=C1SC(CC(=O)Nc2cccc(Cl)c2Cl)C(=O)N1C (stereo unspecified)	-1.6%
O=C(C1CC1)N(Cc1ccco1)c1nc(-c2ccccc2)cs1	9.2%
CCCCOC(=O)NCN1C(=O)C2C3C=CC(C3)C2C1=O (stereo unspecified)	3.5%
O=C(Nc1ccc(N2CCCCC2)c(Cl)c1)c1ncn[nH]1	-17.1%
COc1cc(OC)cc(C(=O)N2CCN(C(=O)c3cccc(F)c3)CC2)c1	33.1%
O=C(CSc1nnc(-c2cccs2)n1-c1ccccc1)NCc1ccc2c(c1)OCO2	3.7%
CCOc1ccc(Cl)cc1S(=O)(=O)N1CCN(c2ccc(F)cc2)CC1	11.3%

(list continues)
mol	AmpC inh no det
COC(=O)[C@@H]1C[C@H]1[C@@H](NC(=O)c1ccc(Br)cc1)c1ccccc1	-6.2%
CC1CCCN(c2nc3c(c(=O)[nH]c(=O)n3C)n2CCCc2ccccc2)C1 (stereo unspecified)	15.8µM*[single pt active]
CCN(CC)S(=O)(=O)c1ccc2nc(CSc3nnnn3-c3ccc(O)cc3)[nH]c2c1	?
Cc1ccc2c(c1)CCCN2C(=O)c1ccncc1	21.4%
Cc1noc(C)c1C(=O)Nc1ccccc1-c1ccccc1	1.5%
COc1ccc(C)cc1S(=O)(=O)N(C)CC(=O)NCc1ccco1	50.5%
O=C(Nc1ccc(S(=O)(=O)NC2CCCC2)cc1)c1cnccn1	-5.8%
COc1ccc(Cn2nnnc2C(c2cc3cccc(C)c3[nH]c2=O)N2CCOCC2)cc1 (stereo unspecified)	51.4%

Remaining list, next part
mol	AmpC inh no det
CC1(C)CNC(=O)CC(C)(C)N1O	-5.4%
O=C(Nc1ccccc1OC(=O)N1CCOCC1)N1CCOCC1	-5.8%
O=C(Nc1cnn(Cc2ccccc2)c1)c1cc2nc(-c3ccco3)cc(C(F)(F)F)n2n1	74.4%
CCOC(=O)c1cnc(SCC(=O)Nc2nc(C)c(C)s2)nc1N	34.4%
O=C(COc1ccccc1)Nc1ccc2c(c1)nc1n2CCOC1	2.6%
O=C(O)C[O][Sb][O]CC(=O)O	-1.9%[5.75 µM]
O=C(O)c1ccc(C(=O)c2ccccc2C(=O)O)cc1C(=O)O	-5.2%[5.75 µM]
O=c1c2c3nc4ccccc4nc3n(-c3ccc4c(c3)OCCO4)c2ncn1CC1CCCO1 (stereo unspecified)	20.9%

The listing continues.
mol	AmpC inh no det
c1csc(CNc2ncnc3sccc23)c1	-10.6%
COc1ccc(-c2nnc(SCC(=O)Nc3cc(C)on3)n2N)cc1OC	-3.1%
Nc1nc2n(n1)C(c1ccccc1)CC(c1ccc(F)cc1)N2 (stereo unspecified)	3.98µM*[single pt active]
Cc1cccc(NS(=O)(=O)c2ccc(C)c(C(=O)OCC(=O)Nc3cc(C)on3)c2)c1	10µM*
CN(C)[C@@H]1C(=O)C(C(N)=O)=C(O)[C@]2(O)C(=O)C3=C(O)c4c(O)cccc4[C@](C)(O)[C@H]3C[C@@H]12	-10.1%[5.75 µM]
CN(C)CCN1C(=O)C(=O)/C(=C(/O)c2ccc(F)cc2)C1c1ccccc1 (stereo unspecified)	1.7%
O=C(O)c1cc([N+](=O)[O-])ccc1NCCCc1ccccc1	-13.9%&-6.1%
CC(C)COP(=O)(c1ccc(N(C)C)cc1)C(O)c1ccccn1 (stereo unspecified)	22.0%

(continued)
Compound | AmpC inh no det
Cc1ccc(-n2c(SCn3nnc4ccccc4c3=O)nnc2-c2cccnc2)c(C)c1 | 91.6%
O=C1CSc2ccccc2N1Cc1ccccc1F | -12.2%
CC1(C)Cc2c(C#N)c(NC3CCCCC3)nc(-c3ccco3)c2CO1 | -1.2%
CN(C)S(=O)(=O)c1ccc(S(=O)(=O)N(Cc2ccccn2)Cc2ccco2)cc1 | 19.5%
CC(C)NC(=O)c1ccc2c(c1)nnn2C | 6.9%
CCOc1ccc2nc(N3CCC(C(=O)N4CCN(c5ncccn5)CC4)CC3)sc2c1 | 56.0%
CCOC(=O)CCSCC(=O)Nc1nnc(C)s1 | 2.9%
Cn1c(-c2ccccc2)cc(=O)c2ccccc21 | 0.6%
Cc1ccc(S(=O)(=O)N2CCN(C(=O)CSC3CCCC3)CC2)c(C)c1 | 79.4%
CCCCC(=O)NCCc1c(Cc2ccccc2)[nH]c2ccccc12 | -4.1%
Cc1cnc(C(=O)Nc2cccc3ncccc23)cn1 | 2.5%
CCOC(=O)c1ccc(Oc2nc(OC)nc(N(C)C)n2)cc1 | 37.5%
COc1cccc(CNc2ccc(S(=O)(=O)Nc3nccs3)cc2)c1O | -7.8%
COCCCN(C(=O)Nc1ccc(C)c(C)c1)C(C)c1ccccn1 (stereo unspecified) | 35.4%
C=CCn1c(SCC(=O)c2ccc(O)c(O)c2)nnc1-c1ccccc1OC | -6.1%
CC(Oc1ccc(Cl)cc1Cl)C(=O)Nc1ccncc1 (stereo unspecified) | 19.3%
COC(=O)C1=C(C)NC(C)=C(C(=O)OC)C1c1ccc(OC(=O)c2ccco2)cc1 | 75.4%
Cc1cc(CC(C)C)n(-c2nc3ccccc3c(=O)n2OCC(=O)N(C)C)n1 | 50.5%
Cc1nc2ncnn2c(C)c1CCC(=O)N1CCc2ccccc2C1 | 10.6%
CC(=O)c1c(N)c(C#N)c(C)n1-c1ccc(Br)cc1 | -0.1%
O=c1oc2ccccc2cc1-c1cn2cccnc2n1 | -11.8%
CCN(CC)CCCNC(=O)c1cc(-c2ccc(Cl)cc2)on1 | 6.9%
CC(=O)Nc1ccc(-c2cn3cccnc3n2)cc1 | -6.6%
CCOC(=O)N1CCN(S(=O)(=O)c2cccc3nonc23)CC1 | 3.2%
CCc1[nH]c(C)c(C(C)=O)c1C | -4.1%

Remaining list, next part.
Compound | AmpC inh no det
COc1ccc(CCn2nnnc2C(c2ccc(Cl)cc2)N2CCN(C)CC2)cc1OC (stereo unspecified) | 72.1%
COc1ccc2[nH]cc(CCN(C)C)c2c1 | -3.1%
CC[C@](C)(CN(C)C)OC(=O)c1ccccc1 | -3.3%[12.8 µM]
Cc1cccc(OCC(=O)N2CCN(C(=O)Cc3ccccc3)CC2)c1 | 53.4%
CCOC(=O)CSC1=C(C#N)C(c2sccc2C)CC(=O)N1 (stereo unspecified) | -4.0%
O=C(Nc1cccc2c1CCCC2)c1ccc(Br)o1 | 0.8%
COc1ccccc1NC(=O)CSc1nc(N)cc(N)n1 | -10.7%
Cc1nc2ncnn2c(C)c1CCC(=O)NC(C)c1ccc2c(c1)OCCO2 (stereo unspecified) | -0.3%
CSCC[C@H](NC(=O)OC(C)(C)C)c1nnc(SCC=C(C)C)o1 | 39.3%
CC(C)COc1ccc(C(=O)OC2CC(C)(C)OCC2CN(C)C)cc1 (stereo unspecified) | 81.3%
COc1ccc(C(C)NC(=O)c2ccoc2C)cc1OC (stereo unspecified) | -11.1%
COc1ccc(CCNC(=O)CSc2nncn2N)cc1OC | -2.7%
Cc1ccc(C(=O)C(NC(=O)c2ccco2)N2CCOCC2)cc1 (stereo unspecified) | 10.7%
COCCn1nnnc1CN1CCC(NC(=O)Nc2cccc(OC)c2)CC1 | 1.4%
CC(=O)N1CCc2c(sc(NC(=O)C3CC3)c2-c2nc3ccccc3s2)C1 | 30.7%
COc1ccc(C(=O)Nc2ccc(C)cn2)c(OC)c1 | 25.3%
c1ccc2c(c1)CCN2CCN1CCc2ccccc21 | ?
Cc1c(NC(=O)CCC2CCCCC2)c(=O)n(-c2ccccc2)n1C | 2.9%
Cc1cccc(C)c1OCC(=O)NCc1nnc(SCC(=O)NC2CCCCC2C)n1C (stereo unspecified) | 84.5%
COc1ccc(C(=O)NCc2nnc(SCC(=O)NCc3ccc(F)cc3)o2)cc1 | -0.2%
CCCCn1c(O)c(C(C)=NCc2ccc(F)cc2)c(=O)[nH]c1=O | 35.8%
Cc1cccc(OCC(=O)NCc2ccncc2)c1C | 3.16µM*[single pt active]
C[C@@H]1CCC[C@H](C)N1NC(=O)c1ccc(Cl)c(S(N)(=O)=O)c1 | -9.1%[12.8 µM]
O=C(CN1C(=O)CN=C(c2ccccc2Cl)c2cc(Cl)ccc21)NCc1ccco1 | 55.8%
COc1ccc(CCNC(=O)c2ccc(CNc3c(N4CCOCC4)c(=O)c3=O)cc2)cc1OC | -4.6%

Next records:
Compound | AmpC inh no det
O=C(COc1ccc2ccccc2c1Br)N1CCOCC1 | -7.6%
C[N+]12CN3CN(CN(C3)C1)C2 | 1.7%
O=C(Nc1nc(-c2cc3ccccc3oc2=O)cs1)c1ccco1 | 5.5%
C=CCSc1nnc2c(n1)OC(c1cccnc1)Nc1ccccc1-2 (stereo unspecified) | -6.4%
CC(NC(=O)C(C)(C)C)c1nc2ccccc2n1C (stereo unspecified) | -4.0%
CN1CCN(CCCNC(=O)CCCOc2cc(=O)n(C)c3ccccc23)CC1 | -2.0%

Shown as labelled records: two of the compounds above
SMILES: CC(=O)N1CCc2c(sc(NC(=O)C3CC3)c2-c2nc3ccccc3s2)C1
- AmpC inh no det = 30.7%
SMILES: O=C(O)c1ccc(C(=O)c2ccccc2C(=O)O)cc1C(=O)O
- AmpC inh no det = -5.2%[5.75 µM]
